Screening results: PubChem, National Center for Advancing Translational Sciences (NCATS)
Sfp PPTase inh – Sfp phosphopantetheinyl transferase inhibition | Biochemical Sfp PPTase activity, qHTS | 310,000 tested, 3.5% active | Potency, µM, for inactives: max response, negative = inhibition, most hits filed as inhibitors | Q9F4F7; active means well fitted inhibition curve with a large enough effect; inconclusive means small, poorly fitted or top-dose-only effect, or another doubt; inactive means no such curve, though single readings can be large or run the other way;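 further: the enzyme is Sfp with the accession as filed and its product quenches rhodamine fluorescence; potency means the concentration at half of the fitted maximal effect; 0% = enzyme reaction without inhibitor and -100% = no enzyme wells; top concentration of the series not given in the record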
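Reaction rates are the 30-min fluorescence difference (ex 525, em 598 nm) in wells containing 15 nM Sfp, 5 uM rhodamine-CoA and 12.5 uM BHQ-2-YbbR at pH 7.6 with 10 mM MgCl2.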
gsp agonist – gsp mutant agonism; Potency, µM (titrated, usually from 76.9 µM), for inactives: top-dose activation (cAMP increase), most hits filed as activators; gsp mutant cells, cAMP HTRF, 30 min; control for the full effect not named in the record; 340,000 tested, 0.13% active; active = well fitted activation curve with a large enough effect; inconclusive = small, poorly fitted or top-dose-only effect, or another doubt; inactive = no such curve, though single readings can be large or run the other way; cell line not stated here;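 further: phosphodiesterase inhibitor Ro 20-1724 added with compounds to block cAMP breakdown; potency means the concentration at half of the fitted maximal effect; nearly all actives have a fitted effect of over 60% in size; about a fifth of the inactives were tested at one dose only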
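Cells stably selected in G418 were plated at 2000/well, grown 16-24 hr, then given compounds in DMSO with the PDE inhibitor […] (300 uM solution added) for 30 min at 37C; cAMP was read by HTRF.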
Menin-MLL FL inh – displaces fluorescein MLL peptide from human menin; FP activity change, % at 61.4 µM; Fluorescence polarization, fluorescein-MLL peptide displacement from menin; AID 1766; 290,000 tested, under 10 active; inconclusive = falling polarisation curve, or a change in total fluorescence; inactive = total fluorescence flat and polarisation flat or rising; no compound was filed as active; the % refers to the polarisation; negative = inhibition;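 further: % of control where 0% means no effect; inhibitors lower the polarisation; unlabelled MLL peptide was the positive control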
ClpP mod – qHTS Assay for Activators of ClpP; 340,000 tested, 1.9% active; ATP-dependent Clp protease proteolytic subunit (Bacillus subtilis (strain 168)), P80244; purified B. subtilis ClpP, FRET peptide cleavage, 20 min; Potency, µM (series often up to 57.5 µM), for inactives: at the highest dose activity change, negative = active; active = well fitted falling curve with a large enough effect; inconclusive = small, poorly fitted or top-dose-only effect; inactive = no such curve, though single readings can be large or run the other way; further: potency means the concentration at half of the fitted maximal effect; the source files actives as falling curves though it sought activators and does not explain the sign; nearly all actives have a fitted effect of over 65% in size; many hits overshoot -100%
Target sequence (P80244 whole entry, looked up): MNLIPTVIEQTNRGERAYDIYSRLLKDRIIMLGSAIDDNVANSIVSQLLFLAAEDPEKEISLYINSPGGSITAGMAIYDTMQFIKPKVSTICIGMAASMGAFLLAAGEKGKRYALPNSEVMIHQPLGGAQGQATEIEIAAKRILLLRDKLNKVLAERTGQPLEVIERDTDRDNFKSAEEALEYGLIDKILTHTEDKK
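Buffer: 100 mM Tris/HCl pH8, 100 mM KCl, 0.05% low protease BSA, 2.5% glycerol, 0.01% Tween-20. ClpP 10 microg/mL final; 20 min RT; delta FRET normalized to ADEP and DMSO controls.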
PINK1 expr mod – changes PINK1 expression. PINK1 immunofluorescence, high-content cytometry, 24 h. Potency, µM (highest dose often 76.6 µM), for inactives: top-dose activation (PINK1 increase), actives largely listed as activators. 410,000 tested, 0.2% active; active = well fitted activation curve with a large enough effect; inconclusive = small, poorly fitted or top-dose-only effect; inactive = flat fitted curve, though single readings scatter; cell line not stated here;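 further: potency means the concentration at half of the fitted maximal effect; % of control where 0% means no effect; nearly all actives have a fitted effect of over 65% in size; a mitochondrial uncoupler was the plate control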
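Compound titrations (5 concentrations, 24 h) on a stable cell line; DMSO and CCCP controls. Endpoint: fixed-cell PINK1 immunofluorescence with mitochondrial, cell and nuclear markers, scanned by microplate cytometer.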
gsp antag – antagonists of gsp mutant (McCune-Albright syndrome). gsp-mutant cells, cAMP HTRF, 30 min; control for the full effect not named in the record. Potency, µM (top dose mostly 76.9 µM), for the others: at the top dose activity change, negative = inhibition, actives largely listed as inhibitors. 340,000 tested, 0.4% active; active = falling curve of any shape with a large fitted effect; inconclusive = falling curve, mostly with a smaller effect; inactive = flat or rising curve; cell line not stated here;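 further: intracellular cAMP measured with PDE inhibitor Ro 20-1724 present during compound exposure; potency means the concentration at half of the fitted maximal effect; on the % scale 0 is the no-effect control and ±100 the full control effect; nearly all actives have a fitted effect of over 65% in size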
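Cells, 2000/well, grown 16–24 h in DMEM 10% FBS with 0.5 mg/ml G418, then compounds plus […] (300 uM addition stock), 30 min at 37C. cAMP read by HTRF (cAMP-d2 and anti-cAMP antibody-K in lysis buffer) after 30 min RT.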
D2 ag – agonists of human D2 dopamine receptor (beta-arrestin); 360,000 tested, 0.084% active; P14416; activation, % (no concentration beside the values); DiscoveRx PathHunter D2 beta-arrestin, luminescence, 90 min; 100% = 57 uM dopamine signal; in the data active = activation above about 40%; inconclusive = about 15% to 40%; inactive = below about 15%; further: compound concentration not given in the record; the text of the record calls up to 30% inactive
Target sequence (P14416 whole entry, looked up): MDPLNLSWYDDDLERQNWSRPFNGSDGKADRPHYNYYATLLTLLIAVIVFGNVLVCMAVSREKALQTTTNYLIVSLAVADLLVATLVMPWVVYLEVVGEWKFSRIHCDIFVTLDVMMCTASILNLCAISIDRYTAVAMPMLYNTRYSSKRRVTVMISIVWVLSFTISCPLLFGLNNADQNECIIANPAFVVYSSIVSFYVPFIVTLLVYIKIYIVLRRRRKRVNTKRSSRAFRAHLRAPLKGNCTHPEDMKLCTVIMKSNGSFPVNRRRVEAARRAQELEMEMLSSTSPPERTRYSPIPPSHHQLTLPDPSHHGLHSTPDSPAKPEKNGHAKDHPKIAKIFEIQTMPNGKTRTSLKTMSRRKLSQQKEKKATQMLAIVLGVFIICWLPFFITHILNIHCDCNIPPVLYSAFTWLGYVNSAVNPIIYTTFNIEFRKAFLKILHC
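Agonist mode: compounds alone added to overnight-plated D2 PathHunter cells for 90 min at 37 C, with 57 uM final dopamine (EC100) defining full response. Beta-arrestin recruitment detected by chemiluminescent reagent, read after 1 h at ambient temperature.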
Active calls of the source: *; ? = inconclusive; nt = not tested or not shown; & = joins results of further samples; [ ] = another dose, or the depositor's remark.

Below each compound – Sfp PPTase inh, gsp agonist, Menin-MLL FL inh, ClpP mod, PINK1 expr mod, gsp antag, D2 ag
1	Cc1ccc(NC(=O)CN(C)C(=O)COC(=O)c2nc3nccc(C)n3n2)cc1
→ nt, 4.9%, nt, -1.4%, 0.5%, 6.7%, 1.8
2	O=C(CCCCO)CCCCCCCC[C@H]1N[C@H](CO)[C@H](O)[C@@H]1O[C@@H]1O[C@H](CO)[C@@H](O)[C@H](O)[C@H]1O
→ 1.0%, nt, 0.3, 0.6%, -1.1%, 8.5%, -3.0
3	COc1ccc(C2/C(=C(\O)c3ccc4c(c3)OCCO4)C(=O)C(=O)N2CCCN(C)C)c(OC)c1 (centres undefined)
→ -17.2%, -19.6%, 8.1, -2.5%, -0.5%, -21.5%, -2.8
4	CCCC(=O)Nc1ccc(NC(=O)c2ccccc2Cl)nc1
→ 16.8%, -12.2%, 5.5, 0.7%, 5.0%, -1.0%, -2.4
5	CCc1ccccc1N1CC(C(=O)Nc2nccs2)CC1=O (centres undefined)
→ 15.5%, 2.4%, -1.1, nt, -2.0%, 6.8%, -3.7
6	CC(=O)Nc1nonc1NC(=O)CSc1ncn[nH]1
→ -16.0%, 18.0%, 4.4, 2.0%, -1.9%, 7.8%, 0.5
7	COC(=O)c1ccc(CSc2nnc(SCc3ccc(C(=O)OC)o3)s2)o1
→ -14.9%, 5.3%, -0.4, -0.6%, 2.7%[38.3 µM], -18.8%, -0.9
8	CC(NC(=O)Cn1cc([N+](=O)[O-])cn1)c1ccc(C(C)(C)C)cc1 (centres undefined)
→ nt, -18.9%, nt, 1.1%, 2.1%, -7.7%, -2.7
9	COc1cccc(NS(=O)(=O)c2cc3c(cc2C)N(C)CCO3)c1
→ -5.0%, -1.5%, -2.1, 1.6%, 1.1%, 1.9%, 0.6
10	Cc1ccc(S(=O)(=O)N2CCC(C(=O)NCCc3ccccc3)CC2)cc1
→ 28.9%, -9.8%, -0.2, -0.3%, 0.8%[38.3 µM], 0.7%, -2.2
11	COc1ccc(-c2ccc(CN3C(C)C(=O)N(Cc4cn(CCC5OCCO5)nn4)CCS3(=O)=O)cc2)cc1 (centres undefined)
→ nt, -16.5%, nt, 1.9%, -2.4%, nt, -6.6
12	CCOC(=O)C1=C(C(=O)OCC)c2ccc(OC)c(OC)c2C1
→ nt, 10.7%, nt, nt, 4.4%, -3.9%, 1.4
13	Cc1cccc(C(C)C)c1NC(=O)COC(=O)Cc1ccsc1
→ 11.5%, ?, 2.0, 1.3%, -2.1%, 0.2%, -2.1
14	CNC(=O)NC(=O)CSc1ccc(S(=O)(=O)N2CCOCC2)cn1
→ nt, 7.5%, nt, 0.4%, 2.2%, 24.0%, -1.2
15	COc1ccc(-c2cc(C(=O)NC(Cc3cc4ccccc4[nH]3)C(=O)O)c(C)o2)cc1OC (centres undefined)
→ 22.4µM*, -5.7%[15.4 µM], 8.2, nt, 1.4%, 1.8%, 0.0
16	CC(Oc1ccccc1Cl)C(=O)Nc1ccc(S(=O)(=O)Nc2nccs2)cc1 (centres undefined)
→ nt, -18.3%[15.4 µM], nt, nt, -0.9%, -21.1%, -2.8
17	CCOC(=O)c1c(NC(=O)C(C)OC(=O)C2=COCCO2)sc2c1CCCC2 (centres undefined)
→ nt, -15.6%, nt, -13.1%, 2.6%, 22.4µM*, -2.1
18	CCCCCCn1nc(C(=O)N(CCCC)c2c(N)n(CCC)c(=O)[nH]c2=O)c2ccccc2c1=O
→ nt, -7.1%[15.4 µM], nt, 0.0%, 8.2%, 4.4%, -1.7
19	COc1ccc(CNC(=O)N2CCN(S(=O)(=O)c3ccccc3)CC2)cc1
→ 16.9%, -1.1%, 0.1, nt, -2.1%, -0.5%, -6.4
20	CN1CCN(C(c2cccc(C(F)(F)F)c2)c2nnnn2Cc2ccccc2)CC1 (centres undefined)
→ 11.8%, 1.0%, 3.6, 0.7%, -3.5%[38.3 µM], 8.8%, -0.5
21	CCN1CCN(CC(=O)Nc2cc3c(cc2C(C)=O)OCO3)CC1
→ ?, -11.7%[15.4 µM], -2.6, nt, 1.5%, 11.5%, 3.4
22	COc1ccc(CNC2CCCC2)c(OC)c1OC
→ 0.2%, -19.3%, 1.2, -0.1%, -0.4%, 7.7%, 1.0
23	CC(C)CC(=O)NC(=S)NNC(=O)c1ccc(NC(=O)C2CCCCC2)cc1
→ 5.0%, -2.5%, 1.2, -1.3%, 0.1%, 3.1%, -2.5
24	Cc1cccc(NC(=O)C(NS(=O)(=O)c2ccc3c(c2)CCC(=O)N3)c2ccccc2)n1 (centres undefined)
→ -28.6%, -2.8%, 5.7, 0.4%, 10.5%[38.3 µM], -1.9%, -3.1
25	CCc1ccc(/C=C/C(=O)c2ccc(N3CCOCC3)cc2)cc1
→ 8.7%, -4.0%[15.4 µM], 4.1, 0.7%, 6.9%, -14.8%, 0.1
26	COc1cc(-c2nc(-c3ccccc3)c(-c3cccs3)[nH]2)cc(OC)c1O
→ 1.3%, ?, -1.9, 28.2µM*, 0.7%, -19.1%, 9.2
27	CCOC(=O)C1=C(C)NC(C)=C(C(=O)OCC)C1c1cc2ccc(C)cc2[nH]c1=O
→ -12.7%, -4.6%, 2.9, ?, 8.1%, -3.4%, -2.4
28	COc1ccccc1OCC(O)CN1CCOCC1 (centres undefined)
→ 15.2%, 11.7%[15.4 µM], 0.0, 0.5%, 0.4%, 10.0%, 2.7
29	CC1CCC2(CC1)NC(=O)N(CC(=O)NCc1cccs1)C2=O (centres undefined)
→ 18.8%, ?, -0.8, -5.2%, -1.7%, 14.9%, 2.0
30	Fc1ccc2cc(-c3ccccc3)ncc2c1
→ nt, nt, nt, -29.1%, 2.9%, 0.6%, 1.7
31	COc1ccc(NC(=O)Cn2nnc(C(=O)NCCc3ccccc3)c2N)cc1
→ 2.2%, -31.3%[inhibitor], -0.3, 2.1%&1.4%, 2.3%&0.8%, ?, -1.7
32	COc1ccc(CCN2CC(C(=O)NCCc3ccc(F)cc3)CCC2=O)cc1 (centres undefined)
→ 13.2%, -0.3%, -3.6, 1.8%, -0.1%, -3.6%, -2.0
33	COc1cccc(NC(=O)CN(C)C(C)C(=O)Nc2ccc(C(C)=O)cc2)c1 (centres undefined)
→ 14.9%, 9.7%, -5.2, -1.4%, 0.4%, -8.5%, -5.7
34	O=C(NCC(c1ccco1)N1CCc2ccccc21)C(=O)Nc1ccc(F)cc1F (centres undefined)
→ nt, -45.1%[inhibitor], nt, -7.2%, ?, 30.6%, -2.2
35	O=C(NCCc1cn2ccccc2n1)c1cc(COc2c(F)cccc2F)on1
→ ?, 6.1%[15.4 µM], 8.3, nt, -0.4%, 5.0%, 2.8
36	COc1ccccc1CNC(=O)c1[nH]c(C)c(C(C)=O)c1C
→ 10.4%, 2.3%, 1.6, -1.8%, -0.2%, -6.5%, 1.3
37	Cc1cccc(/C=C2\Oc3cc(OS(C)(=O)=O)ccc3C2=O)c1
→ -10.6%, 4.6%, -0.2, -4.2%, 0.2%, 5.1%, 5.7
38	COC(=O)C1=C(C)N(C)C(=S)NC1c1ccc(OC)cc1OC (centres undefined)
→ 18.3%, 10.8%, -0.6, 0.5%, -0.7%, 51.8%[activator], -6.6
39	Cc1c(NC(=O)CSc2ccccc2C(=O)Nc2cccnc2)c(=O)n(-c2ccccc2)n1C
→ 23.2%, -2.0%, 3.9, 0.9%, -0.9%, 3.0%, -2.3
40	CCC(=O)Nc1cc(-c2nn(C)c(=O)c3ccccc23)ccc1N1CCCCC1
→ 0.8%, 0.1%, 3.4, -2.6%, 1.5%, 2.7%, -0.8

Copied from above, compounds 36 to 37
Below each compound – Sfp PPTase inh, gsp agonist, Menin-MLL FL inh, ClpP mod, PINK1 expr mod, gsp antag, D2 ag
36	COc1ccccc1CNC(=O)c1[nH]c(C)c(C(C)=O)c1C
→ 10.4%, 2.3%, 1.6, -1.8%, -0.2%, -6.5%, 1.3
37	Cc1cccc(/C=C2\Oc3cc(OS(C)(=O)=O)ccc3C2=O)c1
→ -10.6%, 4.6%, -0.2, -4.2%, 0.2%, 5.1%, 5.7

Additional records follow.
Below each compound – Sfp PPTase inh, gsp agonist, Menin-MLL FL inh, ClpP mod, PINK1 expr mod, gsp antag, D2 ag
41	CC(=O)Nc1ccc(S(=O)(=O)NCC(=O)OCC(=O)c2cc(C)n(-c3ccc4c(c3)OCO4)c2C)cc1
→ 0.3%, 0.0%, 12.5, 1.1%, 0.5%, -1.0%, -5.3
42	Cc1cc(C)c(C(O)c2ncc(-c3cccc(F)c3)[nH]2)c(C)c1 (centres undefined)
→ nt, nt, nt, -1.1%, 1.3%, nt, -1.2
43	Cn1c(N)c(C(=O)c2ccc(C#N)cc2)c(=O)n(C)c1=O
→ 7.0%, -82.0%[inhibitor], 1.9, 0.2%, -1.8%, 3.9%, -3.0
44	CCCCn1c(N)c(N(CCOC)C(=O)C2CC(=O)N(c3ccc(CC)cc3)C2)c(=O)[nH]c1=O (centres undefined)
→ nt, -1.5%, nt, -0.4%, -0.9%, 12.2%, -4.3
45	COCC(=O)NCCSc1c(C)[nH]c2ccccc12
→ -4.8%, -3.6%, 5.4, -15.9%, 0.1%, -1.0%, -6.5
46	Cc1cc([N+](=O)[O-])nn1CC(=O)NCCCN1CCOCC1
→ 21.8%, -8.2%, 0.9, nt, 1.0%, 1.3%, 1.0
47	Cc1nc2cnc(N3CCOCC3)nc2n(C[C@H]2CCCO2)c1=O
→ 27.5%, nt, 4.4, nt, -0.4%, nt, nt
48	O=C(O)CCCC(=O)N1N=C(c2ccccc2)CC1c1cccs1 (centres undefined)
→ -24.1%, -0.4%[15.4 µM], 0.2, nt, 0.7%, ?, -2.6
49	COc1ccc(Cl)cc1NC(=O)COC(=O)CCCC1=NS(=O)(=O)c2ccccc2N1
→ 6.3%, ?, nt, -0.4%, -0.6%, -14.1%, -2.9
50	CC(CCc1ccccc1)NC(=O)Cn1cccc1C(=O)c1ccccc1 (centres undefined)
→ 13.4%, 19.9%, nt, 0.8%, -0.9%, -4.2%, -4.7
